NPYLR7 agonist: activates Aedes aegypti NPYLR7 receptor. activation, % at 10 µM. AID 1259423. HEK293T NPYLR7/Galpha15, GCaMP6s calcium fluorescence. hit rate 0.15% among 270,000; in the data active = activation above about 40%;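 also: 0% = vehicle and 100% = reference agonist at the receptor; some compounds past the cut are filed as inactive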
NPYLR7 agonist max-min: second read-out of NPYLR7 agonist, no call of its own (marks repeat the call); activation, %; measured here: Max-Min RFU normalised activation; some inactives read as strong as hits;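 span of the calcium signal over five minutes; 0% = vehicle and 100% = native peptide agonist; compound fluorescence can raise it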
* hit, by the source's call; & = joins results of further samples. A portion of the library, so the mix of outcomes need not match the whole.

(1) COc1ccc(Br)c(NC(=O)N2CCOC(C)(C)C2)c1
(2) COc1cccc(C(O)CNC(=O)c2ccc3c(c2)NC(=O)CCS3)c1 (stereo unspecified)
(3) Cc1cccc(NC(=O)Cc2nc(-c3cccc(Br)c3)cs2)c1
(4) COc1ccc(OCC2CN(CCOc3ccccc3)C(=O)c3ccc(C)nc3O2)cc1 (stereo unspecified)
(5) COc1ccc(C)c2sc(N(Cc3cccnc3)C(=O)c3ccc(Cl)s3)nc12
(6) N#Cc1cccc(C(=O)Nc2cccc(-c3cccc(-c4ccc(F)cc4)n3)c2)c1
(7) C=C(C)CN(CC(=C)C)c1ccc(Cl)c(C(N)=O)c1
(8) CN1CCC(Cc2noc(-c3cc(-c4ccccc4O)n[nH]3)n2)CC1
Screen / compound no.	1	2	3	4	5	6	7	8
NPYLR7 agonist	-2	2	1	0	-10	4	-1	28
NPYLR7 agonist max-min	-3	1	1	10	-8	13	3	16

(9) CCCc1nc(C(=O)N2CCCC(c3[nH]ncc3CC)C2)cs1 (stereo unspecified)
(10) O=C(NCCOc1cc(N2CCCC2)ncn1)c1ccc(=O)[nH]c1
(11) N#CC1C(=N)S[C@@H](C(=O)c2ccccc2)[C@@H]1c1ccccc1 (stereo partly specified)
(12) C=CCCC(O)CN(Cc1ccco1)Cc1c(C)nn(-c2ccccc2)c1Oc1ccc(F)cc1F (stereo unspecified)
(13) CC(C)c1[nH]n(-c2ccc(Cl)cc2)c(=O)c1C1=C([n+]2ccccc2)C(=O)N(C(C)C)C1=O
(14) COC(=O)c1cc(OC)c(OC)cc1NCc1cc(=O)oc2cc(C)c(O)cc12
(15) COCc1nc(NCC(c2sccc2C)N(C)C)c2cnn(C)c2n1 (stereo unspecified)
(16) CCn1nc(C)c(Br)c1C(=O)N1CCc2c([nH]c3ccc(OC)cc23)C1c1ccc(COC(C)=O)o1 (stereo unspecified)
Screen / compound no.	9	10	11	12	13	14	15	16
NPYLR7 agonist	0	-1	-7	-6	-11	3	7	8
NPYLR7 agonist max-min	0	-2	-6	-3	-7	-1	4	-1

(17) O=C(OCc1cc(-c2cc3ccccc3o2)on1)C1CC1
(18) Cc1c(Cl)c(C(F)(F)F)nn1CC(=O)Nc1c(Cl)cccc1Cl
(19) O=C(CSc1ccc(F)cc1F)Nc1ccc(-n2cnnn2)cc1
(20) O=c1c2cnc3ncnn3c2ccn1-c1ccc(Br)cc1
(21) COc1c(F)cc(NC(=O)c2ccc(-c3n[nH]c(C)n3)cc2)cc1F
(22) COc1ccc(C=CC(=O)c2ccc(C#N)cc2)cc1
(23) Cc1cc(OCC(=O)NNC(=O)CCOc2ccccc2)ccc1Cl
(24) CC(C)CN(Cc1c(-c2ccccc2)noc1N1CCCCC1)C(=O)NC(C)C
Screen / compound no.	17	18	19	20	21	22	23	24
NPYLR7 agonist	-3	-11	6	2	3	-7	-1	-4
NPYLR7 agonist max-min	-5	-11	5	3	2	12	-11	-3

(25) Cn1c(=O)c2c(nc(CN(Cc3ccccc3)Cc3ccccc3)n2CC(O)CO)n(C)c1=O (stereo unspecified)
(26) Cc1ccc(CNC(=O)c2nnn(CC(=O)Nc3cc(C)cc(C)c3)c2N)cc1
(27) O=C(CCN1C(=O)c2ccccc2C1=O)Nc1ccccc1F
(28) CC1CCCC(NC(=O)Cc2ccc(-n3cccn3)cc2)C1C (stereo unspecified)
(29) COC(=O)c1cccc(CN2CCC(c3ccncc3)CC2)c1
(30) C=CCNC(=O)c1c(NC(=O)c2cccc([N+](=O)[O-])c2)sc2c1CCCC2
(31) Cn1c(=O)[nH]c(=O)c2c1nc(SCCCO)n2Cc1ccccc1Cl
(32) CCOC(=O)c1sc(NC(=O)c2ccc(Oc3ccccc3)cc2)nc1C
Screen / compound no.	25	26	27	28	29	30	31	32
NPYLR7 agonist	2	-5	4	-3	2	3	2	10
NPYLR7 agonist max-min	7	-11	-2	-2	-1	0	1	9

(33) CCc1oc(-c2nn3c(C4CC4)nnc3s2)cc1CN(CC)CC
(34) FC(F)(F)C1CN(Cc2cc(-c3cccnc3)no2)CCO1 (stereo unspecified)
(35) CN(Cc1n[nH]c2c1CCCCC2)C(=O)c1ccc(-n2cnnn2)cc1
(36) CC(C)c1csc(NC(=O)c2ccccc2Br)n1
(37) CCN(CC)C(=O)C1=C(C)NC(=S)NC1c1ccsc1 (stereo unspecified)
(38) COC(=O)c1cccc2c1CN(Cc1nnc(-c3ccc(C)cc3)o1)CC2
(39) O=C(CN(Cc1ccco1)S(=O)(=O)c1ccc(Cl)c(Cl)c1)Nc1ccc(F)c(F)c1F
(40) COc1cc(C=C2SC(=O)N(CCNC(=O)C(C)(C)c3ccccc3)C2=O)cc(OC)c1OC
Screen / compound no.	33	34	35	36	37	38	39	40
NPYLR7 agonist	-1	10	25	1	0	9	3	1
NPYLR7 agonist max-min	-1	1	13	0	1	8	3	7

(41) CCCN1CCC(Cc2noc(-c3cccnc3OC)n2)CC1
(42) Cc1cccc(CO[C@]2(C(=O)NCC3CC3)CC(OCc3cccc(F)c3F)[C@@H]3OC(C)(C)O[C@@H]3C2)c1 (stereo partly specified)
(43) COc1ccc2oc(=O)c(C(=O)NC3=C(C#N)CCC3)cc2c1
(44) Cc1cnc(C)c(N2CCN(Cc3ccc(C#CC(C)(C)O)s3)CC2)n1
(45) C[N+](C)(C)CCOC(N)=O
(46) CCOC(=O)C1=C(C)N=c2s/c(=C\c3ccccc3F)c(=O)n2C1/C=C/c1ccccc1 (stereo unspecified)
(47) O=C(c1ccn2nnnc2c1)N1CCCC(CCc2ccc(F)c(F)c2)C1 (stereo unspecified)
(48) CCCCc1nnc(SC2CCN(CC(F)(F)F)C2=O)n1N (stereo unspecified)
Screen / compound no.	41	42	43	44	45	46	47	48
NPYLR7 agonist	2	34	-5	4	43&5&20&34	-5	3	-1
NPYLR7 agonist max-min	9	30	-12	3	33&2&14&10	-9	1	1

(49) CCCNC(=O)C1(C)CCCN(CC(=O)c2csc3ccccc23)C1 (stereo unspecified)
(50) CN(C)C(=O)c1cc(NC(=O)NCc2ccc3c(c2)CCC3)ccn1
(51) COc1ccccc1CCN1CCCC(CN(C)Cc2nc3ccccc3n2C)C1 (stereo unspecified)
(52) COc1ccc2cc(-c3ccccc3NC(=O)CN)ccc2c1
(53) Cc1nnsc1CN(C)Cc1cnc(-c2cccc3ccccc23)nc1
(54) Cc1cccn2cc(C(=O)N3CCCn4cncc4C3)nc12
(55) COc1cccc(C(=O)NCc2n[nH]c(=S)n2-c2ccccc2)c1
(56) COc1ccc(C2SCC(=O)N2c2ccc(F)cc2)cc1 (stereo unspecified)
Screen / compound no.	49	50	51	52	53	54	55	56
NPYLR7 agonist	-6	4	16	3	24	-2	1	-10
NPYLR7 agonist max-min	-3	0	2	3	13	6	2	-17

From no. 1 to 2, as listed above:
(1) COc1ccc(Br)c(NC(=O)N2CCOC(C)(C)C2)c1
(2) COc1cccc(C(O)CNC(=O)c2ccc3c(c2)NC(=O)CCS3)c1 (stereo unspecified)
Screen / compound no.	1	2
NPYLR7 agonist	-2	2
NPYLR7 agonist max-min	-3	1

Additional structures.
(57) CCC(c1nc2ccccc2c(=O)n1-c1ccccc1OC)N(Cc1ccccc1)C(=O)Nc1ccc(Br)cc1 (stereo unspecified)
(58) Cc1ccc(C(=O)CSc2nc3[nH]c(=O)[nH]c(=O)c3s2)cc1
(59) Cc1ccccc1C(=O)Nc1ccnn1C1CCN(C(=O)C2=CCCCC2)CC1
(60) Cc1ccsc1[C@@H]1CCN(Cc2c(C)nn(C)c2Cl)C[C@H]1O
(61) Cc1cccc2cc(CO)c(-c3cc(NCCO)nc4[nH]ccc34)nc12
(62) COc1ccc2[nH]c3c(c2c1)CCN(C(=O)COCc1ccccc1)C3c1ccc(COC(C)=O)o1 (stereo unspecified)
(63) CC(NC(=O)c1ccc(N2CCCC2=O)cc1)c1ccc(F)c(F)c1 (stereo unspecified)
(64) C/C(=C/C(=O)N1CCCN(C(N)=O)CC1)c1ccccc1Cl
Screen / compound no.	57	58	59	60	61	62	63	64
NPYLR7 agonist	22	-5	-3	4	8	8	-1	8
NPYLR7 agonist max-min	20	-11	-4	3	2	-2	-1	7

(65) CC(=O)c1sc(NC(=O)c2ccccc2NS(=O)(=O)c2ccc(C)cc2)nc1C
(66) O=C1CON=C(Cc2ccccc2)N1Cc1ccccc1F
(67) NC(=O)NC(CC(=O)N1CCC(CCc2ccccc2)CC1)c1ccccc1F (stereo unspecified)
(68) Cc1cccc(C(C)C)c1NC(=O)CNC(C)c1nn[nH]n1 (stereo unspecified)
(69) Cc1nc(-n2nc(-c3cccs3)cc2NC(=O)c2c(F)cccc2Cl)[nH]c(=O)c1C
(70) CN(C)N=CC=C1CCC(=Cc2ccc(F)c(F)c2)C1=O
(71) FC1(F)Oc2cccc(-c3nccn3CCCn3ccnc3)c2O1
(72) CCc1cnc(C)nc1NCC1(N(C)C)CCSC1 (stereo unspecified)
Screen / compound no.	65	66	67	68	69	70	71	72
NPYLR7 agonist	1	6	8	3	-1	0	26	18
NPYLR7 agonist max-min	2	3	5	0	-3	-1	17	9

(73) c1ccc2cc(CN3CCC4(CCCNC4)C3)ccc2c1 (stereo unspecified)
(74) C=CCOC(CN1CCN(C(=O)c2cc(C)nc(Cl)c2)CC1)c1cccc(N2CCCC2)c1 (stereo unspecified)
(75) C=CCNC(=O)c1cn(CC)cc2c(=O)n(-c3ccccc3)nc1-2
(76) O=c1c2cc3c(=O)n(-c4ncn[nH]4)ccc3nc2ccn1Cc1ccco1
(77) OC(C#CC(O)(c1ccccc1)c1ccccc1)c1ccc(F)cc1 (stereo unspecified)
(78) O=C(NCCc1ccccc1Cl)c1ccc(Cn2c(=O)[nH]c3ccccc3c2=O)cc1
(79) CS(=O)(=O)CCC(=O)Nc1cccc(-n2cccc2)c1
(80) O=C(O)/C=C\C(=O)NNC(=O)CSc1ccc2ccccc2n1
Screen / compound no.	73	74	75	76	77	78	79	80
NPYLR7 agonist	3	-2	2	-13	11	-9	-3	-4
NPYLR7 agonist max-min	0	5	2	-18	3	-10	-5	-15

Reprinted from the entries so far (17 entries):
(64) C/C(=C/C(=O)N1CCCN(C(N)=O)CC1)c1ccccc1Cl
(65) CC(=O)c1sc(NC(=O)c2ccccc2NS(=O)(=O)c2ccc(C)cc2)nc1C
(66) O=C1CON=C(Cc2ccccc2)N1Cc1ccccc1F
(67) NC(=O)NC(CC(=O)N1CCC(CCc2ccccc2)CC1)c1ccccc1F (stereo unspecified)
(68) Cc1cccc(C(C)C)c1NC(=O)CNC(C)c1nn[nH]n1 (stereo unspecified)
(69) Cc1nc(-n2nc(-c3cccs3)cc2NC(=O)c2c(F)cccc2Cl)[nH]c(=O)c1C
(70) CN(C)N=CC=C1CCC(=Cc2ccc(F)c(F)c2)C1=O
(71) FC1(F)Oc2cccc(-c3nccn3CCCn3ccnc3)c2O1
(72) CCc1cnc(C)nc1NCC1(N(C)C)CCSC1 (stereo unspecified)
(73) c1ccc2cc(CN3CCC4(CCCNC4)C3)ccc2c1 (stereo unspecified)
Screen / compound no.	64	65	66	67	68	69	70	71	72	73
NPYLR7 agonist	8	1	6	8	3	-1	0	26	18	3
NPYLR7 agonist max-min	7	2	3	5	0	-3	-1	17	9	0

(74) C=CCOC(CN1CCN(C(=O)c2cc(C)nc(Cl)c2)CC1)c1cccc(N2CCCC2)c1 (stereo unspecified)
(75) C=CCNC(=O)c1cn(CC)cc2c(=O)n(-c3ccccc3)nc1-2
(76) O=c1c2cc3c(=O)n(-c4ncn[nH]4)ccc3nc2ccn1Cc1ccco1
(77) OC(C#CC(O)(c1ccccc1)c1ccccc1)c1ccc(F)cc1 (stereo unspecified)
(78) O=C(NCCc1ccccc1Cl)c1ccc(Cn2c(=O)[nH]c3ccccc3c2=O)cc1
(79) CS(=O)(=O)CCC(=O)Nc1cccc(-n2cccc2)c1
(80) O=C(O)/C=C\C(=O)NNC(=O)CSc1ccc2ccccc2n1
Screen / compound no.	74	75	76	77	78	79	80
NPYLR7 agonist	-2	2	-13	11	-9	-3	-4
NPYLR7 agonist max-min	5	2	-18	3	-10	-5	-15

Next part.
(81) Cc1nc2cc(C(F)(F)F)ccc2n1C1CCN(C(=O)Cc2cccs2)CC1
(82) COc1ccc(CNC(=O)Cn2cccc(-c3nc(-c4ccc(Br)cc4)no3)c2=O)cc1
(83) COc1ccc(NC(=O)C2(C)CCN2Cc2ccc(C(C)C)cc2)cc1OC (stereo unspecified)
(84) CC1CN(c2cc(Oc3ccccc3F)ncn2)CCN1Cc1ccc(Cl)cc1 (stereo unspecified)
(85) CC(C)OP(=O)(OC(C)C)C(Nc1cccc(N)c1)c1cccc(N)c1 (stereo unspecified)
(86) Cn1c(=O)oc2cc(S(=O)(=O)NCCCN3CCCC3=O)ccc21
(87) O=C(Nc1nn[nH]n1)C12CC3CC(CC(C3)C1)C2
(88) Cc1ccc(CN(Cc2ccc(C(O)(c3cccs3)c3cccs3)o2)CC2CCCO2)s1 (stereo unspecified)
Screen / compound no.	81	82	83	84	85	86	87	88
NPYLR7 agonist	-5	4	5	3	-12	10	-13	-6
NPYLR7 agonist max-min	-11	-1	2	11	-14	10	-21	11

(89) CC1=C(c2ccccc2)[N+](=O)C(C)(c2ccc(Br)cc2)N1[O-] (stereo unspecified)
(90) O=C(NCc1cc(F)cc(F)c1)c1ccc(-c2ccc(Oc3ccccc3)cc2)s1
(91) CC(C)CNc1nc(-c2ccc(O)c(C(N)=O)c2)cs1
(92) Nc1nc(COC(=O)C2CC3CCCC(C2)C3=O)nc2sc3c(c12)CCCC3 (stereo unspecified)
(93) CCN1CCN(S(=O)(=O)c2ccc([N+](=O)[O-])cc2)CC1
Screen / compound no.	89	90	91	92	93
NPYLR7 agonist	8	4	5	4	-7
NPYLR7 agonist max-min	13	3	-2	2	-11

Screens as filed in PubChem.
